# Source: PubChem (National Center for Advancing Translational Sciences (NCATS))
# gsp ag = qHTS for Agonist of gsp, the Etiologic Mutation Responsible for Fibrous Dysplasia/McCune-Albright Syndrome: qHTS. 340,000 compounds, 0.13% hits. Potency, µM (series often up to 76.9 µM), for inactives: at the highest dose activation (cAMP increase), most hits filed as activators. gsp mutant cells, cAMP HTRF, 30 min; control for the full effect not named in the record; active = well fitted activation curve with a large enough effect; inconclusive = small, poorly fitted or top-dose-only effect, or another doubt; inactive = no such curve, though single readings can be large or run the other way; cell line not stated here;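 note: phosphodiesterase inhibitor Ro 20-1724 added with compounds to block cAMP breakdown; potency is the fitted concentration of half-maximal effect; nearly all actives have a fitted effect of over 60% in size; about a fifth of the inactives were tested at one dose only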
#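 Cells stably selected in G418 were plated at 2000/well, grown 16-24 hr, then given compounds in DMSO with the PDE inhibitor […] (300 uM solution added) for 30 min at 37C; cAMP was read by HTRF.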
# Sfp PPTase inh = qHTS Assay for Inhibitors of Bacillus subtilis Sfp phosphopantetheinyl transferase (PPTase) | Potency, µM, without a hit: max response, negative = inhibition, hits mostly inhibitors | AID 1490, 2009 | 310,000 compounds, 3.5% hits | Biochemical Sfp PPTase activity, qHTS; active = well fitted inhibition curve with a large enough effect; inconclusive = small, poorly fitted or top-dose-only effect, or another doubt; inactive = no such curve, though single readings can be large or run the other way;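 note: the enzyme is Sfp with the accession as filed and its product quenches rhodamine fluorescence; potency is the fitted concentration of half-maximal effect; 0% = enzyme reaction without inhibitor and -100% = no enzyme wells; top concentration of the series not given in the record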
#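 Fluorescence-quenching assay: 15 nM Sfp-PPTase preincubated 15 min at room temperature with compound, then 5 uM rhodamine-CoA and 12.5 uM BHQ-2-labelled YbbR peptide added. Fluorescence (ex 525/em 598 nm) read at start and after 30 min; difference gives rate.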
# ClpP mod = qHTS Assay for Activators of ClpP | purified B. subtilis ClpP, FRET peptide cleavage, 20 min | Potency, µM (doses to about 57.5 µM), for inactives: top-dose activity change, negative = active | AID 651965, 2013 | 340,000 compounds, 1.9% hits; active = well fitted falling curve with a large enough effect; inconclusive = small, poorly fitted or top-dose-only effect; inactive = no such curve, though single readings can be large or run the other way; note: potency is the fitted concentration of half-maximal effect; the source files actives as falling curves though it sought activators and does not explain the sign; nearly all actives have a fitted effect of over 65% in size; many hits overshoot -100%
# Target sequence (P80244 whole entry, looked up): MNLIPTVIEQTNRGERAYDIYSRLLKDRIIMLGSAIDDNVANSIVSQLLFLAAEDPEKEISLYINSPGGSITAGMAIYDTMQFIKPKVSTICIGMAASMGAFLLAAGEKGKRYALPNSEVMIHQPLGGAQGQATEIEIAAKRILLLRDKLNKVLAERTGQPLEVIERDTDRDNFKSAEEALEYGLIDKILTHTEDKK
#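 Purified B. subtilis ClpP, 10 microg/mL final in Tris/HCl pH8 with KCl, BSA, glycerol and Tween-20, cleaved an Abz/nitrotyrosine-quenched decapeptide. Fluorescence (ex 320, em 430) was read at 0 and 20 min at room temperature. Delta was normalized to 5.8 microM ADEP and DMSO/no-enzyme controls.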
# TRPV1 potentiator = HTS Assay for Compounds that Act as Potentiators of the Vanilloid Receptor 1 | AID 540277, 2011 | 320,000 compounds, 0.02% hits | potentiation, % at 8.33 µM | TRPV1-expressing cells, Fluo-8 calcium influx, capsaicin EC20 potentiation; host cell line not named in the record; control for the full effect not named in the record | Transient receptor potential cation channel subfamily V member 1 (Homo sapiens), Q8NER1; active means potentiation above 80%; inconclusive means 30% to 80%; inactive means below 30%; note: 0% is about no effect
#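 Cells expressing TRPV1 were dye-loaded with Fluo-8 and read kinetically: 10 s baseline, 3 min after compound (agonist portion), then 2 min after EC20 capsaicin (allosteric enhancer portion). Calcium-bound dye fluorescence at 480/520 nm.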
# D2 potentiator = Beta-Arrestin HTS for Positive Allosteric Modulators of the Human D2 Dopamine Receptor: Potentiators; DiscoveRx D2 beta-arrestin cells, luminescence, 90 min; 100% = 57 uM dopamine signal; potentiation, % (concentration not given with the values); 360,000 compounds, 0.23% hits; active = potentiation of 50% or more; inconclusive = 30% to 50%; inactive = 30% or less;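 note: tested on top of an EC20 dose of dopamine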
# Target sequence (P14416 whole entry, looked up): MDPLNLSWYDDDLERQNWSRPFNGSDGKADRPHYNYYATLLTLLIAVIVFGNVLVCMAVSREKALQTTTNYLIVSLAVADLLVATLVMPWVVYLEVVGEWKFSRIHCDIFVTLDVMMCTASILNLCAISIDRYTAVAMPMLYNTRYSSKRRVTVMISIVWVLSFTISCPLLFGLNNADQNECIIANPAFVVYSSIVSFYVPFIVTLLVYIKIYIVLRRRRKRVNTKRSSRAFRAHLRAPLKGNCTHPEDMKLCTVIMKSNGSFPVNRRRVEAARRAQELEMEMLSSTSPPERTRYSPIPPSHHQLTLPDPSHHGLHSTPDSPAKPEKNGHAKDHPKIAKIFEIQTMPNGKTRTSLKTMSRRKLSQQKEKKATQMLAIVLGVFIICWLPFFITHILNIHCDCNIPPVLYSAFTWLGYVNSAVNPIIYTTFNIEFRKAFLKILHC
#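 PathHunter D2 cells, attached overnight at 37 deg C, received compound in DMSO plus dopamine at EC20 (50 nM final) for 90 min at 37 deg C. Beta-arrestin recruitment was read as luminescence after 1 h with detection reagent at ambient temperature.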
# gsp antagonist = qHTS for Antagonists of gsp, the Etiologic Mutation Responsible for Fibrous Dysplasia/McCune-Albright Syndrome: qHTS. Potency, µM (highest dose often 76.9 µM), for the others: at the highest dose activity change, negative = inhibition, most hits filed as inhibitors. gsp-mutant cells, cAMP HTRF, 30 min; control for the full effect not named in the record. 340,000 compounds, 0.4% hits; active = falling curve of any shape with a large fitted effect; inconclusive = falling curve, mostly with a smaller effect; inactive = flat or rising curve; cell line not stated here;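 note: intracellular cAMP measured with PDE inhibitor Ro 20-1724 present during compound exposure; potency is the fitted concentration of half-maximal effect; % is set by controls: 0 for no effect and ±100 for the full control effect; nearly all actives have a fitted effect of over 65% in size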
#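 Measurement of cellular cAMP by homogeneous time-resolved fluorescence following a 30 min compound exposure at 37C. The PDE inhibitor […] was present throughout; the assay buffer was DPBS with 0.05% BSA and 0.005% Tween 20.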
# Menin-MLL FL inh = qHTS Assay for Inhibitors Targeting the Menin-MLL Interaction in MLL Related Leukemias: Competition With Fluorescein Labeled MLL-derived Peptide; Fluorescence polarization, fluorescein-MLL peptide displacement from menin; FP activity change, % at 61.4 µM; 290,000 tested, under 10 active; AID 1766, 2009; inconclusive = falling polarisation curve, or a change in total fluorescence; inactive = total fluorescence flat and polarisation flat or rising; no compound was filed as active; the % refers to the polarisation; negative = inhibition;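 note: % of control where 0% means no effect; inhibitors lower the polarisation; unlabelled MLL peptide was the positive control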
# Numbers without * were called inactive; ? = inconclusive; . = no result given; & = joins results of further samples; [ ] = another dose, or the depositor's remark. Rows were taken by chance; 5.1% or so of the library scored in one or more.
# Below each SMILES: gsp ag, Sfp PPTase inh, ClpP mod, TRPV1 potentiator, D2 potentiator, gsp antagonist, Menin-MLL FL inh
> c1ccc2sc(SN3CCOCC3)nc2c1
→ -10%, -23%&-85%, -3.7%, -38, -4, 4%, -0.1&3.1
> CC(C)(C)c1cc2nc(N)nc(N)n2n1
→ 1%[15.4 µM], 21%, 0.0%, 24, -4, -5%, 0.4
> O=C(NCCCN1CCCC1)c1ccc2c(c1)N(Cc1ccccc1F)C(=O)c1ccccc1S2(=O)=O
→ 16%, -1%, -0.6%, -4, -18, 4%, .
> O=C(Nc1cc(Cl)cc(Cl)c1)C(NCCO)c1ccccc1 (stereo unspecified)
→ 4%, 35µM*, -1.1%, 1, -13, 10%, 0.3
> COC(=O)C(N)Cc1ccc(OC)c([N+](=O)[O-])c1 (stereo unspecified)
→ 7%[15.4 µM], -2%, 0.3%, 11, -15, 13%, 0.0
> Nc1cc(=O)[nH]c(=O)n1CC1CC1
→ -8%, -3%&4%, -1.0%, 16, 1, 6%, 4.8&-2.8
> COC(=O)c1sc2nc(C)cc(C)c2c1N
→ 23%, 1%, ., -7, -8, 9%, 0.8
> CC(C)c1nc(-c2ccc([N+](=O)[O-])cc2)cs1
→ -20%, 5%, -5.6%, 7, 9, -6%, 13
> CCOC(=O)C1(Cc2ccc(OC)cc2)CCN(C(=O)CCc2cccnc2)CC1
→ -3%, 19%, ., -19, -2, -4%, -0.2
> Cc1cc(NC(=O)CSCC(=O)OC(C)C(=O)c2cc(C)c(C)cc2C)no1 (stereo unspecified)
→ 12%[15.4 µM], ., -3.2%, -12, 16, -24%, .
> Cc1nn(Cc2ccccc2)c(C)c1NC(=O)CSc1nc2sc3c(c2c(=O)n1C)CCC3
→ 16%, ., -2.1%, ., 16, -10%, .
> CC(=O)c1sc(NC(=O)C2=NN(c3ccccc3)C(=O)CC2)nc1C
→ 3%[15.4 µM], 79µM*, ., 7, -3, -26%, 2.1
> O=[N+]([O-])c1cc2c(cc1/C=N/NS(=O)(=O)c1ccc(Br)cc1)OCO2
→ 2%[15.4 µM], -28%, ., 4, -10, -13%, -4.1
> Cc1cccc(C)c1NC(=O)N1CCN(c2nc3ccccc3s2)CC1
→ 5%, 18%, 37%, -18, 0, -18%, 1.4
> COc1ccc(S(=O)(=O)Nc2ccccc2C(=O)NCc2cccnc2)cc1
→ -3%[15.4 µM], 7%, ., ?, -14, ., -2.5
> Brc1ccc(OCc2cn3ccccc3n2)cc1
→ 13%, 10%, ., 2, -5, 2%, 0.7
> Nn1c(SCC(=O)NCc2ccccc2)nncc1=O
→ ?, -16%, -1.1%, 2, -2, 9%, 3.5
> CCCCCCNC(=O)CCNS(=O)(=O)c1ccc(C)cc1
→ 11%, -6%, ., 1, -4, -2%, 0.0
> CC(C)C(=O)OCC(=O)Nc1ccc(N=Nc2ccccc2)cc1
→ -24%, -5%, -1.7%, -29, -7, 8%, 5.4
> COC(=O)c1ccccc1S(=O)(=O)NNC(=O)Nc1ccccc1
→ -24%, 16%, ., 7, -2, 8%, -5.3
> CCc1ccc(NC(=O)CN2C(=O)C(=O)N(Cc3ccccc3)C2=O)cc1
→ ., 26%, ., -3, ., ., -0.8
> COC(=O)Cc1csc(Nc2ccccc2Cl)n1
→ 19%, -4%, -0.8%, -6, -10, 7%, 4.2
> CC(C)N(C(=S)NC1CC2CCC1C2)c1ccccc1 (stereo unspecified)
→ 19%, 12%, ., 1, -3, 0%, -2.3
> Cc1ccc(NC(=O)CSc2nc(NS(=O)(=O)c3ccccc3)cc(=O)[nH]2)cc1
→ ?, 2%, -2.7%, 8, -8, 10%, 4.5
> Clc1ccc(-c2nnn(Cc3nc4ccccc4s3)n2)cc1
→ 5%, -18%, -3.4%, -14, 6, -17%, 1.8
> Cn1c(SCC(=O)NC(C)(C)C)nnc1-c1cccc(NC(=O)c2ccccc2F)c1
→ -9%, 8%, 1.0%, 0, 11, -6%, 4.1
> CN(CCOc1ccc(-c2ccn(S(=O)(=O)c3cccc4ccccc34)n2)cc1)c1ccccn1
→ -4%, 9%, -5.6%, 27, 14, 0%, 5.0
> CCOC(=O)C1=NN(c2ccccc2)C(=O)C1
→ 1%, 1%, 0.4%, -6, -12, 6%, -1.0
> Cc1cc(S(=O)(=O)Nc2ccc(C(=O)NCCN3CCOCC3)cc2)ccc1F
→ -40%[inhibitor], ., -4.4%, ., -12, ., .
> COc1ccc(C(=O)NNC(=O)c2ccccc2[N+](=O)[O-])cc1[N+](=O)[O-]
→ -8%[15.4 µM], 4%, -2.0%, -3, -10, 7%, 4.4
> CN(C)S(=O)(=O)Oc1cccc(C(=O)Nc2ccc(Cl)cc2)c1
→ -32%[inhibitor], 21%, 0.8%, -10, -13, ?, 5.8
> CCOC(=O)Cc1c(C)nc2c(-c3ccccc3)c(-c3ccccc3)[nH]n2c1=O
→ 19%, 7%, 22µM*, 0, -13, -19%, 9.4
> CCOC(=O)C1CCCN(C(=O)c2cc(Cl)ccc2Cl)C1 (stereo unspecified)
→ 11%, 13%, 0.5%, -7, 2, -6%, -0.2
> COc1cc2c(cc1CNC[C@H]1O[C@@H](n3cnc4c(N)ncnc43)[C@H](O)[C@@H]1O)OCO2
→ ., ., 1.2%, ., 2, 1%, .
> CN(C)c1ccc(C2NCC(CCl)O2)cc1 (stereo unspecified)
→ -17%, -5%, -6.7%, -4, 5, 6%, 2.2
> CCOC(=O)CN1C(=O)N[C@@H](c2cccc(C(F)(F)F)c2)[C@@H](C(=O)OC)[C@H]1C
→ 34%, 13%, -1.3%, ., -15, -5%, -3.7[11.7 µM]
> COc1ccc(CCN(C)C(=O)c2cc(S(=O)(=O)N3CCCCCC3)ccc2OC)cc1OC
→ 1%[15.4 µM], ., ., 3, 3, 7%, .
> NC(=O)CC(NC(=O)c1ccccc1)c1ccc(NCc2ccc(F)c(F)c2)c([N+](=O)[O-])c1 (stereo unspecified)
→ -53%[inhibitor], 12%, -2.0%, -4, -12, 1%, -2.1
> COc1cccc(NC(=O)CN2CCN(c3nc(-c4cccc(OC)c4)cs3)CC2)c1
→ -27%, -19%, 18µM*, -6, -5, -10%, 5.5
> Cc1cc(-c2n[nH]c(=S)n2/N=C/c2ccc(Cl)c([N+](=O)[O-])c2)n[nH]1
→ -33%[inhibitor], ?, -1.3%, -1, -4, -9%, 4.8
> CCN(C(=O)COC(=O)c1cnc(C)cn1)C1CCCCC1
→ 31%, 11%, -0.5%, -2, 12, 14%, -0.1
> O=C(CNC(=O)c1cccs1)NCC(=O)OCc1ccc(F)cc1
→ 0%, -5%, -2.3%, 20, -15, -5%, 0.1
> CC(C)(C#N)NC(=O)C1CCCN1S(=O)(=O)c1ccc2ccccc2c1 (stereo unspecified)
→ -16%, 23%, 0.3%, ?, -13, 13%, -2.5
> COc1cc(C(=O)NCC2CCCO2)ccc1OCc1ccc(Cl)cc1 (stereo unspecified)
→ -7%, ., 0.3%, -7, -1, 1%, .
> COc1ccc(-c2cc(=O)c3ccccc3n2C)cc1
→ -41%, 29%, -5.3%, -7, 27, -7%, 3.1
> CCOC(=O)c1sc(NC(=O)/C=C/c2ccc(F)cc2)nc1C
→ 2%[15.4 µM], -1%, ., 9, -5, 1%, 0.0
> N#Cc1ccccc1Sc1ccccc1C(=O)Nc1ccccc1
→ -29%, 7%, -0.8%, 12, -9, -4%[15.4 µM], 3.2
> COc1ccc(C(=O)OCC(=O)c2ccccc2)cc1S(=O)(=O)N1CCOCC1
→ -55%[inhibitor], -7%, -1.4%, -6, -6, 5%, 12
> O=C(N/N=C/c1ccco1)c1cc([N+](=O)[O-])cc([N+](=O)[O-])c1
→ ?, 8%, 1.1%, 11, ?, -10%, 3.4
> O=C(CN1C(=O)S/C(=C\C=C\c2ccccc2)C1=O)NC1CCS(=O)(=O)C1 (stereo unspecified)
→ 3%, -6%, -1.3%, -3, -5, -20%, 2.2

# (more compounds)
# Below each SMILES: gsp ag, Sfp PPTase inh, ClpP mod, TRPV1 potentiator, D2 potentiator, gsp antagonist, Menin-MLL FL inh
> COc1ccc(Nc2nc(N(C)c3ccccc3)nc(N)c2[N+](=O)[O-])cc1
→ 9%[15.4 µM], 16%, ., 1, -4, 7%, -4.5
> CCC(=C/c1sc2ccc3ccccc3c2[n+]1C)/C=C1\Sc2ccc3ccccc3c2N1C
→ -75%[inhibitor], ?, ., 1, -3, 35µM*, ?
> COC(=O)[C@H](CCSC)NC(=O)Nc1ccc(C)cc1
→ -12%, 11%, 0.7%, 18, -5, -12%, -0.6
> O=S1(=O)CCOCCCN1Cc1ccc(Cl)cc1
→ ., 17%, 2.4%&-0.2%, 15, -3, 8%, -8.5
> CN(C)CC(C)(C)CNC(=O)c1cc(=O)c2ccccc2o1
→ 2%, 9%, 1.4%, -6, -6, 9%, 1.8
> CC1=C(C(=O)OCC(C)C)C(c2ccsc2)C2=C(CCCC2=O)N1 (stereo unspecified)
→ -19%, 18%, -16%, -8, -5, -15%, 7.5
> NCCCC[C@H]1CNC(=O)C(=O)N1CC1CCCCC1
→ -15%, 4%, -0.8%, 3, -8, 14%, 3.1

# Single records, as listed above. Order of values: gsp ag | Sfp PPTase inh | ClpP mod | TRPV1 potentiator | D2 potentiator | gsp antagonist | Menin-MLL FL inh
# CN(C)CC(C)(C)CNC(=O)c1cc(=O)c2ccccc2o1 in the list: 2% | 9% | 1.4% | -6 | -6 | 9% | 1.8
# COC(=O)[C@H](CCSC)NC(=O)Nc1ccc(C)cc1 in the list: -12% | 11% | 0.7% | 18 | -5 | -12% | -0.6
# COc1ccc(Nc2nc(N(C)c3ccccc3)nc(N)c2[N+](=O)[O-])cc1 in the list: 9%[15.4 µM] | 16% | . | 1 | -4 | 7% | -4.5
